Screening results: PubChem, Johns Hopkins Ion Channel Center
KCNQ2 pot = potentiators of rat KCNQ2 potassium channel; O88943; CHO-K1 KCNQ2, FluxOR thallium flux fluorescence; active compounds read high; B-score at 10 µM; hit rate 0.54% among 310,000;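 active = fluorescence ratio B-score at least 3 SD of library B-scores, with initial fluorescence B-score within 3 SD, cut at about 5.3 in these data; same plate scores as AID 2156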;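 note: B-score of peak minus minimum over baseline fluorescence ratio after K+ and Tl+ stimulus; positive B-score means potentiation of KCNQ2 with more thallium influx and brighter signal; only the inactives scoring about 0 or higher are listed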
Target sequence (O88943 whole entry, looked up): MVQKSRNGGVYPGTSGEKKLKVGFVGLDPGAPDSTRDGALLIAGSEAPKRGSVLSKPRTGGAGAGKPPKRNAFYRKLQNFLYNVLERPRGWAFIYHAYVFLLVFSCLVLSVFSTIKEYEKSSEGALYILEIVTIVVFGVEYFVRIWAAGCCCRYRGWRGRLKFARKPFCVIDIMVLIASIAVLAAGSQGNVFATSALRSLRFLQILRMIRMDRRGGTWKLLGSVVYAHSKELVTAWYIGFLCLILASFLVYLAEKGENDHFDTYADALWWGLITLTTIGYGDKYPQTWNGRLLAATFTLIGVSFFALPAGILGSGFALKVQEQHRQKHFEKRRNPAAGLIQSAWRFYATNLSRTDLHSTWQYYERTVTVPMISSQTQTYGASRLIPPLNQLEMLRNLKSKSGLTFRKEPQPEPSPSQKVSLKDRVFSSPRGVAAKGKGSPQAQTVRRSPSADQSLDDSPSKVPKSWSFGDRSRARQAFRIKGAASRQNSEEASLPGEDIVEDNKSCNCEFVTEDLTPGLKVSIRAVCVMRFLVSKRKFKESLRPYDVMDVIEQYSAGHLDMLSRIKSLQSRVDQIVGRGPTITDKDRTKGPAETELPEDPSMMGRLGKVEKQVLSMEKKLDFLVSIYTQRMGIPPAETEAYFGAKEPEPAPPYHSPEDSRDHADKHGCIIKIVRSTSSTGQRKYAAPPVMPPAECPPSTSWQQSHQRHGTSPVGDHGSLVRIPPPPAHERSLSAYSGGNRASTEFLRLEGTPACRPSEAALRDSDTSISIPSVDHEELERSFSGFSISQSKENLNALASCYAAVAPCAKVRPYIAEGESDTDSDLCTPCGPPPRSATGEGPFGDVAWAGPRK
KCNQ2 pot baseline = further read-out of KCNQ2 pot, marked with its call; B-score; compound at 10 µM; measured here: initial fluorescence intensity artifact check;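 brightness before thallium and not channel activity; 0 = typical well and far values either way flag optical interference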
* hit, by the source's call; nt = not tested or not shown. An excerpt, so the mix of outcomes need not match the whole.

Results follow in this order: KCNQ2 pot	KCNQ2 pot baseline
> O=C(Nc1ccc(Cl)cc1)C1C2C=CC3(O2)C1C(=O)N(CCN1CCCCC1)C3C(=O)NC1CCCCC1 (stereo not given)
→ 1.56	0.57
> COC(=O)C(NS(=O)(=O)c1ccccc1Cl)c1ccccc1 (stereo not given)
→ 1.6	-0.06
> CN(C(=O)CCc1nnc(-c2ccc(-c3ccccc3)cc2)o1)C1CCOCC1
→ 4.61	-0.86
> O=C(O)c1ccc2c(c1)OCCCO2
→ 0.21	-2.17
> COc1ccccc1-c1cc(C(F)(F)F)nc(S(=O)(=O)CCCC(=O)NCc2ccc(F)cc2)n1
→ 0.99	-0.73
> Nc1nc(SCC(=O)Nc2cccnc2Cl)n[nH]1
→ 0.63	0.59
> Cc1cc(C(F)(F)F)nn2cnnc12
→ 1.74	1.41
> O=C(O)CN(c1ccccc1F)S(=O)(=O)c1ccccc1
→ 0.42	-4.05
> COc1ccc2oc(C(=O)OCC(=O)N(C)CC(=O)Nc3ccc(F)cc3)c(C)c2c1
→ 4.54	-1.48
> COc1ccccc1/C=N/NC(=O)CNC(=O)c1ccc(S(=O)(=O)N2CCCC2)cc1
→ 1.41	1.92
> CCN(CC)CCn1c(=S)[nH]c2cc(C(=O)NCc3ccc(C)cc3)ccc2c1=O
→ 1.11	0
> CCOC(=O)Cc1csc(NC(=O)COc2ccc(OC)cc2)n1
→ 1.26	-0.4
> COc1cccc(NC(=O)C2CCN(S(=O)(=O)c3ccc4c(c3)OCCO4)CC2)c1
→ 2.57	0.03
> Brc1ccc(-c2nnc3c4ccccc4nc(N4CCOCC4)n23)cc1
→ 0.65	-1.53
> Cc1ccc(NCC(=O)N=Nc2c(O)n(C)c3ccccc23)cc1
→ 1.39	-0.35
> O=C(CCc1nc2sc3c(c2c(=O)[nH]1)CCCC3)Nc1ccccc1Cl
→ 0.45	-1.51
> CCCS(=O)(=O)N1CCCC(C(=O)NCCc2ccc(OC)c(OC)c2)C1 (stereo not given)
→ 0.96	-0.09
> O=C(NC1(C(F)(F)F)NC(=O)N(C2CCCCC2)C1=O)c1ccco1 (stereo not given)
→ 0.02	1.18
> COc1ccc(OC)c(S(=O)(=O)N2CCN(CC(O)COc3ccccc3)CC2)c1 (stereo not given)
→ 1.68	-0.53
> Cc1ccccc1C(=O)NC=C1C(=O)OC(C)(C)OC1=O
→ 0.15	-0.1
> Cc1cc(-n2c(C)cc(C(=O)CN3C(=O)NC4(CCCCC4C)C3=O)c2C)no1 (stereo not given)
→ 0.31	0.56
> COc1ccccc1N1CCN(CCc2n[nH]c(=S)n2-c2ccccc2)CC1
→ 0.92	-0.07
> COc1ccc(C)cc1C(=O)C1CC(C(=O)O)C(C)(C)C1C (stereo not given)
→ 1.39	-1.71
> C[C@H](NC(=O)N1CCn2c1nc1ccccc12)C(=O)NCc1ccccc1
→ 2.85	0.29
> CSc1nnnn1CCn1nnnc1SC
→ 0.6	-0.7
> O=C(c1cccc(S(=O)(=O)N2CCCC2)c1)N1CCCc2ccccc21
→ 0.81	-0.22
> O=C(Nc1cccc(Cl)c1)C1CCCN(S(=O)(=O)c2cnc[nH]2)C1 (stereo not given)
→ 0.14	1.2
> Cc1cc(C)c(S(C)(=O)=O)c(S(=O)c2ccc(Cl)cc2)n1 (stereo not given)
→ 0.12	0.49
> Cc1sc(N/N=C/c2cc([N+](=O)[O-])ccc2O)nc1-c1ccccc1
→ 1.01	0.02
> CCOC(=O)C1CCN(C(=O)Cn2c(=O)oc3cc(S(=O)(=O)N4CCCC4)ccc32)CC1
→ 0.13	0.24
> CCOC(=O)N1CCN(CCC(=O)Nc2cc(C)ccc2C)CC1
→ 1.52	-0.13
> COc1ccc(Nc2oc(-c3cccs3)nc2C#N)cc1
→ 1	-0.28
> N/C(=N\c1nc2c(c(=O)[nH]1)CCC2)Nc1ccccc1C(F)(F)F
→ 0.97	-0.42
> Nc1nc(SCC(=O)NC2CCCCC2)[nH]c(=O)c1-c1ccccc1
→ 1.68	0.66
> COC(=O)Cn1c(=O)c2c(nc3n2CCCN3Cc2ccccc2)n(C)c1=O
→ 1.07	-0.12
> Cc1ccc(-c2nnn(CC(=O)N(c3cccc(F)c3)C(C(=O)NC3CCCC3)c3ccco3)n2)o1 (stereo not given)
→ 0.44	-0.93
> Cc1cc(NC(=O)CSCC(=O)N(C)Cc2ccc(Cl)cc2Cl)no1
→ 2.27	-0.01
> Cc1cc(OCC(=O)Nc2ccc(S(=O)(=O)N3CCN(C)CC3)cc2)cc(C)c1Cl
→ 0.02	0.41
> Cc1cccc[n+]1CC(=O)Nc1ccc([N+](=O)[O-])cc1
→ 1.09	-0.76
> O=C(N/N=C/c1ccccc1)c1cc(=O)[nH]c2ccccc12
→ 0.49	2.39

A draw from above in order of formula weight, high to low.
Results follow in this order: KCNQ2 pot	KCNQ2 pot baseline
> COC(=O)Cn1c(=O)c2c(nc3n2CCCN3Cc2ccccc2)n(C)c1=O
→ 1.07	-0.12
> O=C(Nc1cccc(Cl)c1)C1CCCN(S(=O)(=O)c2cnc[nH]2)C1 (stereo not given)
→ 0.14	1.2
> N/C(=N\c1nc2c(c(=O)[nH]1)CCC2)Nc1ccccc1C(F)(F)F
→ 0.97	-0.42

The results go on.
Results follow in this order: KCNQ2 pot	KCNQ2 pot baseline
> O=C(/C=C/c1ccccc1)N/C(=C/c1ccccc1)C(=O)NCCCO
→ 0.58	0.18
> C/C(=N\NC(=O)Cc1ccccc1)c1cccs1
→ 0.05	0.44
> CN1CCN(C(=O)C23CCC(C)(C(=O)C2Br)C3(C)C)CC1 (stereo not given)
→ 0.14	-1.19
> O=C(COc1ccc(Cl)cc1)Nc1ccc(C(=O)O)cc1NC(=O)COc1ccc(Cl)cc1
→ 1.4	-1.34
> C=CCSc1nnc(CCCCCN2C(=O)c3cccc4cccc(c34)C2=O)o1
→ 0.01	0.39
> CCc1nc(SCC(=O)Nc2cc(C)on2)c2c(C)c(C)sc2n1
→ 0.68	-1.32
> Cc1ccccc1-n1nnnc1-c1ccccc1
→ 1.69	1.21
> CCN(CC)S(=O)(=O)c1cccc(NC(=O)CCSc2ccc(Cl)cc2)c1
→ 0.02	2.17
> O=C(c1ccco1)N1CCN(Cc2nnnn2CC2CCCO2)CC1 (stereo not given)
→ 0.27	-0.37
> COc1ccc(-n2nc3c(c2NC(=O)CC(C)C)CS(=O)C3)cc1 (stereo not given)
→ 0.7	0.59
> CCc1c(C)sc(NC(=O)c2cc(-c3ccco3)on2)c1C#N
→ 0.3	0.55
> CC(=O)NC(c1ccc(C(C)C)cc1)c1ccc2cccnc2c1O (stereo not given)
→ 1.16	0.89
> CCOC(=O)N1CCC(NC(=O)Cn2c3c(c(-c4ccccc4Cl)cc2=O)CCC3)CC1
→ 0.5	-0.02
> Cc1c(C(=O)OCC(=O)c2ccc3c(c2)OCCO3)oc2ccccc12
→ 0.46	-1.85
> O=C(CN1C(=O)c2cccnc2Oc2ccc(Cl)cc21)NCCC1=CCCCC1
→ 0.4	-1.88
> O=C1CCC(=O)N1CC(=O)N(c1ccccc1)c1ccccc1
→ 0.03	-0.04
> Cc1csc(NC(=O)CSc2nnnn2C)n1
→ 0.03	0.77
> O=C(CS)Nc1ccc2ccccc2c1
→ 4.62	1.57
> CCOC(=O)c1[nH]c(=O)[nH]c1COC(=O)c1cc2ccccc2o1
→ 0.87	0.27
> COc1cccc(NC(=S)N2CCc3cc(OC)c(OC)cc3C2)c1
→ 0.49	0.06

Of the compounds above, two contain a cyano group:
Results follow in this order: KCNQ2 pot	KCNQ2 pot baseline
> COc1ccc(Nc2oc(-c3cccs3)nc2C#N)cc1
→ 1	-0.28
> CCc1c(C)sc(NC(=O)c2cc(-c3ccco3)on2)c1C#N
→ 0.3	0.55

The main list resumes, starting three compounds before the break.
Results follow in this order: KCNQ2 pot	KCNQ2 pot baseline
> O=C(CS)Nc1ccc2ccccc2c1
→ 4.62	1.57
> CCOC(=O)c1[nH]c(=O)[nH]c1COC(=O)c1cc2ccccc2o1
→ 0.87	0.27
> COc1cccc(NC(=S)N2CCc3cc(OC)c(OC)cc3C2)c1
→ 0.49	0.06
> Cc1cc(N/N=C2\CC(C)CC(C)(C)C2)nc2ccccc12 (stereo not given)
→ -5.57	nt
> COC(=O)c1ccccc1NC(=O)c1cnn2c(C(F)F)cc(C3CC3)nc12
→ 0.02	-0.27
> Cc1cccc(CN2CCN(C(C)C(=O)NC(C)c3ccccc3)CC2)c1 (stereo not given)
→ 0.98	0
> CCOc1cc(C(=O)OCC(=O)Nc2cc(C)on2)cc(OCC)c1OCC
→ 0.4	1.34
> CCCNC(=O)c1cccc(Cn2cc(Br)c([N+](=O)[O-])n2)c1
→ 0.99	-1.7
> CC1CCCCC1NC(=O)Cn1c(=O)oc2cc(S(=O)(=O)N3CCCC3)ccc21 (stereo not given)
→ 0.01	0.34
> CC1(C)CC(=O)c2c(O)cc(O)cc2O1
→ 0.46	-4.95
> C#CCOCCOCCOCCNc1nc(N2CCN(C(=O)[C@H]([C@@H](C)CC)n3cc([C@@H](N)Cc4ccc(O)cc4)nn3)CC2)nc(N2CCN(C(=O)[C@H]([C@@H](C)CC)n3cc([C@@H](N)CC(C)C)nn3)CC2)n1
→ 0.79	-0.12
> C=C1CSc2nc3ccccc3c(=O)n21
→ 0.11	-0.15
> CC(C)c1cc(C(C)C)c(S(=O)(=O)N2CCNCC2)c(C(C)C)c1
→ 0.49	1.41
> O=C(Nc1cccc(NC(=O)c2cccc(F)c2)n1)c1cccc(F)c1
→ 1.09	-0.11
> O=C(NCc1nc2ccccc2[nH]1)c1cccc(S(=O)(=O)N2CCOCC2)c1
→ 0.16	1.8
> CC(C)CC(=O)c1c[nH]c(C(=O)NCc2ccc(F)cc2)c1
→ 0.02	0.06
> COc1cc(C(C)=O)ccc1Oc1cnccn1
→ 0.1	-1.99
> Cc1ccc(OCCOCCN2CCCC2)c(Br)c1
→ 1.6	0.82
> CN1CCN(c2cc(=O)n(-c3ccc(Cl)cc3)c(=O)[nH]2)CC1
→ 0.89	-2.87
> Cn1cc(CNC(=O)C2CCC(=O)N(Cc3ccccc3F)C2)cn1 (stereo not given)
→ 0.42	-0.67
> CC(=O)Nc1ccc(S(=O)(=O)Oc2cccc(N3C(=O)C4CCCCC4C3=O)c2)cc1 (stereo not given)
→ 0.58	-1.27
> O=C(O)c1ccccc1C(=O)OCc1ccccc1
→ 0.78	2.84
> CCCCOc1ccc(NC(=O)CN2CCN(C(=O)OCC)CC2)cc1
→ 2.02	-0.23
> COc1cccc(NC(=O)COC(=O)/C=C/c2ccc(Cl)cc2Cl)c1
→ 0.03	-0.35
> CCn1nc(C)cc1C(=O)Sc1ccc(C)cc1
→ 0.3	-0.27
> Cn1c(CCNC(=O)c2cc(COc3ccc(F)c(F)c3)on2)nc2ccccc21
→ 0.27	0.77
> COc1cc(/C=N/NC(=O)c2nonc2C)ccc1O
→ 0.82	-0.73
> O=S(=O)(c1ccccc1)N(Cc1ccccn1)Cc1ccccn1
→ 1.33	-0.04
> CN1C(=O)c2c(sc3c2CCCC3)NC1c1ccccc1O (stereo not given)
→ 0.17	1.84
> Cc1cc(Br)ccc1NC(=S)N1CCOCC1
→ 0.95	0.03
> CCN1/C(=C/C(=S)Nc2ccccc2)Sc2ccccc21
→ 1.25	0.02
> NC(N)=Nc1nc2cc([N+](=O)[O-])ccc2o1
→ 0.43	-0.04
> CN(C)S(=O)(=O)c1cc(NC(=O)CN2CCc3ccccc32)ccc1Cl
→ 0.08	-0.03
> Cc1cccc(C)c1NC(=O)C(=O)NCCCN1CCOCC1
→ 0.05	-0.01
> CC(=O)N1CCN(C(=O)CCc2c[nH]c3ccccc23)CC1
→ 0.26	-0.5
> O=C(O)C(=O)Nc1ccc(NC(=O)C(c2ccccc2)c2ccccc2)cc1
→ 0.05	-0.01
> O=C1C2CCCN2C(=S)N1Cc1ccccc1 (stereo not given)
→ 0.3	-0.13
> COC(=O)c1ccc(C2/C(=C(/O)c3ccc4c(c3)CC(C)O4)C(=O)C(=O)N2Cc2ccncc2)cc1 (stereo not given)
→ 0.28	0.12
> C/C(=N\NC(=O)CSCc1ccc([N+](=O)[O-])cc1)c1ccccc1
→ 1.11	0.48
> Clc1nc(NCc2ccco2)nc(N2CCCCC2)n1
→ 0.51	0.32
> CCOC(=O)CC(/C(C)=N\O)c1ccccc1 (stereo not given)
→ 1.37	-2.26
> COc1ccc(NC(=O)CC2CCCC2)cc1S(=O)(=O)N1CCCCC1
→ 1.65	-1.5
> Cc1cccc(N2CCN(C(=O)C3CCN(S(=O)(=O)c4cccc5cccnc45)CC3)CC2C)c1 (stereo not given)
→ 1.59	-0.02
> COCCn1c(=O)[nH]c2cc(C(=O)Nc3cc(OC)c(OC)c(OC)c3)ccc2c1=O
→ 1.02	-1.1
> C[C@@H]1CCC[C@]2(O[C@H](CCO)C[C@@H](O)[C@@H]2O)O1
→ 0.05	-0.19
> O=c1c2ccccc2[nH]c(=S)n1Cc1ccc2c(c1)OCO2
→ 0.06	-0.16
> O=C(Nc1ccccc1Oc1ccccc1)C1CC1
→ 0.51	0.45
> Cc1cccc(NS(=O)(=O)c2ccc(NC(=O)N3CCCCC3)cc2)c1
→ 1.45	-0.1
> Cc1cc(C)nc(-n2nc(C)c(C3(O)C(=O)Nc4ccc(F)cc43)c2N)n1 (stereo not given)
→ 0.54	0.07
> COc1ccc(CNC(=O)C(C)n2nc(C)n3c(cc4occc43)c2=O)cc1 (stereo not given)
→ 0.4	0.91
